miR-21 FLuc = qHTS Assay for Modulators of miRNAs and/orActivators of miR-21. 340,000 tested, under 10 active. HeLa miR-21 FLuc reporter, luciferase, 48 h. AID 2288, 2010. Potency, µM (titrated, usually from 38.3 µM), for inactives: at the highest dose reporter change, positive = more light; active = well fitted rising curve with a large enough effect; inconclusive = small, poorly fitted or top-dose-only effect; inactive = no such curve, though single readings can be large or run the other way;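 further: % of control where 0% means no effect; miR-21 action dims this reporter so a rising signal means less miR-21 action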
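Using DMEM plus 10% FBS, HeLa miR-21-FLuc cells are incubated with test compounds (final up to about 40uM) for 48 hours; firefly luciferase signal is then imaged following reagent-mediated lysis.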
Rango release inh = qHTS Assay for Inhibitors of RanGTP induced Rango (Ran-regulated importin-beta cargo) - Importin beta complex dissociation; Biochemical FRET Rango-importin beta, RanGTP-induced dissociation; 0.071% of 340,000 active; Potency, µM (doses to about 46.1 µM), for inactives: at the top dose activity change, negative = inhibition; Snurportin-1 (Homo sapiens) + GTP-binding nuclear protein Ran (Homo sapiens) + Importin …; active means falling FRET ratio curve, often poorly fitted, with flat reads before Ran was added; inconclusive means other falling curves, or compound fluorescence or quenching; inactive means flat or rising ratio curve;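 further: potency means the concentration at half of the fitted maximal effect; % of control where 0% means no effect; nearly all actives have a fitted effect of over 45% in size; -100% = wells without RanGTP and RCC1; the record marks most hits as doubtful in a second field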
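Rango/importin beta premix (0.1/0.25 uM final), PBS + 1 mM DTT + 0.02% Tween-20 + 0.1% BSA; cpd 5 min RT; FRET pre-read; + RanGTP-RCC1 (0.6 uM Ran, 2 mM GTP, 0.2 uM RCC1); 45 min RT; FRET post-read, ex 430, em 486/530 nm.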
Rango-impB inh = qHTS Assay for Inhibitors of Rango (Ran-regulated importin-beta cargo) - Importin beta complex formation; Rango CFP/YFP FRET sensor + importin beta, 45 min; 0.031% of 340,000 active; Potency, µM (titrated, usually from 92.2 µM), for inactives: at the highest dose inhibition of complex formation; Importin subunit beta-1 (Homo sapiens), Q14974; active = rising FRET ratio curve, often small or poorly fitted; inconclusive = mostly compound fluorescence or quenching in the first reads; inactive = flat curves in all reads;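 further: potency means the concentration at half of the fitted maximal effect; 0% = DMSO wells and 100% = buffer wells lacking importin beta; nearly all actives have a fitted effect of over 15% in size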
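FRET biosensor (snurportin 1 IBB flanked by EYFP and cerulean), 50 nM, with compound 5 min, then 0.125 microM importin beta in PBS, 1 mM DTT, 0.02% Tween-20, 0.1% BSA. CFP/YFP ratio read after 45 min at room temperature; pre-read flags interference.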
GLA inh pH 4.5 = qHTS Assay for Inhibitors of Human alpha-Galactosidase at pH 4.5; 230,000 tested, under 10 active; AID 1467, 2008; activity change, negative = inhibition, % at 105 µM; purified enzyme, 4-MU-alpha-Gal fluorescence, pH 4.5; Alpha-galactosidase A (Homo sapiens), P06280; inconclusive = small, poorly fitted or top-dose-only inhibition, or a rising curve; inactive = flat fitted curve, though single readings scatter; no compound was filed as active;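 further: 0% = full activity with enzyme and -100% = basal without enzyme; dose as in the result columns while the protocol names 77 µM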
Target sequence (P06280 whole entry, looked up): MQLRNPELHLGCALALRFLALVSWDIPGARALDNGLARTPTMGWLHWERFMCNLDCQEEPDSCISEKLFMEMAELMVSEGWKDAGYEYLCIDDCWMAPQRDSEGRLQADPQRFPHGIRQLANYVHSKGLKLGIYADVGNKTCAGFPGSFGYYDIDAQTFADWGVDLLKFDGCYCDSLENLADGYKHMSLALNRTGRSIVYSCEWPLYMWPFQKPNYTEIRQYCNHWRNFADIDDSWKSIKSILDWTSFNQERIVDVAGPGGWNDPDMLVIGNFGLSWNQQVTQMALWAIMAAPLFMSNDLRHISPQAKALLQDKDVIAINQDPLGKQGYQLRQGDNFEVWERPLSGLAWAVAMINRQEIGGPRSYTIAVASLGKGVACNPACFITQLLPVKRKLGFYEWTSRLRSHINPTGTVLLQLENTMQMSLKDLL
Active calls of the source: *; ? = inconclusive; · = no result given; & = joins results of further samples. Not all compounds are listed; the hit share may differ from the screen's.

GLA inh pH 4.5	Rango release inh	miR-21 FLuc	Rango-impB inh	mol
·	8.4%	·	5.7%	Cc1noc(C)c1C(=O)OC(C)C(=O)Nc1ccc2c(c1)OCO2 (stereo not given)
1.5	6.3%	5.3%	2.9%	COc1ccc(S(=O)(=O)N(C)c2ccc(C(=O)N3CCCC3)cc2)cc1
-8.9	25.1%	-3.0%	3.6%	N#Cc1c(N2C(=O)Nc3ccccc3N2O)sc2c1CCCCCC2
3.2	-3.1%	-1.4%	-1.3%	CCOC(=O)C1CCN(C(=O)CSc2c3c(nc4ccccc24)CCC3)CC1
6.8	-18.2%	-68.6%	0.6%	O=C(O)c1ccccc1C(=O)NNc1cccc(Cl)n1
4.6	0.3%	-4.0%	-0.3%	Cc1cccc(C(=O)N2CCCCCC2)c1[N+](=O)[O-]
-2.3	-13.6%	-48.3%	2.7%	CCOC(=O)CSC1=NC(=O)/C(=C/c2ccc(Br)cc2)S1
·	-17.2%	4.4%	3.9%	Cc1cc(OCC(=O)NCCCN2CCCC2=O)c2c(C)c(C)c(=O)oc2c1
·	16.6%	·	-1.8%	O=C(CN1C(=O)C2CC=CCC2C1=O)N1CCN(S(=O)(=O)c2ccccc2)CC1 (stereo not given)
·	-14.3%	-1.7%	-2.2%	O=C(OCC1OC(n2cc(Br)c(=O)[nH]c2=O)C(Br)C1O)c1ccccc1 (stereo not given)
·	-12.7%	·	-1.2%	Cc1ccc(OCC(=O)c2cc(C)n(-c3cc(C)on3)c2C)c([N+](=O)[O-])n1
-4.9	?	?	?	CCN1/C(=C/c2ccc3cc(C)ccc3[n+]2CC)Sc2cc(C)c(C)cc21
6.1	5.3%	1.3%	-0.8%	COc1ccccc1-n1c(SCC(=O)Nc2ccc(Br)cc2)nc(O)cc1=O
0.3	-7.7%	1.8%	-0.3%	COc1ccc(NC(=O)CSc2nc3ccccc3c(=O)n2CCCN2CCOCC2)c(OC)c1
·	10.5%	0.8%	1.0%	CC1CN(C(=O)CCC(=O)N2CCN(c3ccccn3)CC2)c2ccccc2O1 (stereo not given)
-20.5	11.9%	-32.5%	1.9%	O=C(CN1C(=O)S/C(=C\C=C\c2ccccc2)C1=O)Nc1cccc(O)c1
1.7	-14.1%	-2.7%	?	N#CC(C#N)=C1C(=O)N(CCN2CCCCC2)c2ccccc21
4.9	-15.8%	1.7%	-3.3%	Cc1cccn2c(CN[C@@H]3CCCC[C@H]3c3ccccc3)c(C(=O)N3CCOCC3)nc12
·	-3.5%	-4.9%	2.4%	Cc1cc(C)c(S(=O)(=O)NC2CC2)c(C)c1
·	-5.5%	3.1%	-2.0%	CCOC(=O)N1CCN(C2CCCN(C(=O)c3cccc(N(C)C)c3)C2)CC1 (stereo not given)
·	26.8%	-2.3%	-1.1%	Cc1cc(C)cc(C(=O)NC(CC(N)=O)c2ccc(NC3CCCCCCC3)c([N+](=O)[O-])c2)c1 (stereo not given)
-4.0	-0.2%	-4.9%	-1.5%	CCO/C=C1\C(=O)N(CC)c2ccccc21
4.5	-15.5%	0.4%	?	Cn1c2c(c(=O)[nH]c1=O)C(NC(=O)c1ccco1)(C(F)(F)F)C(=O)N2 (stereo not given)
-0.9	-12.5%	-7.4%	6.9%	O=S(=O)(N/N=C/c1ccc(F)cc1)c1ccccc1
·	-3.4%	-71.8%	5.4%	CCc1ccccc1OCC(=O)Nc1ccc2c(c1)OCCO2

Next part:
GLA inh pH 4.5	Rango release inh	miR-21 FLuc	Rango-impB inh	mol
-6.6	4.6%	-19.2%	1.3%	O=C(CSc1nnnn1C1CCCCC1)NCCc1ccccc1
5.4	-23.9%	0.5%	-1.5%	CCC(C)[C@H]1CNC(=O)C(=O)N1CCCc1cc(OC)c(OC)c(OC)c1 (stereo not given in full)
·	5.4%	·	2.4%	Cc1ccc(C)c(S(=O)(=O)N2CCN(c3nc(CN4CCOCC4)nc4sc(C)c(C)c34)CC2)c1
-2.9	3.3%	-54.4%	1.1%	CC(=O)n1nc(-c2ccco2)nc1SCc1ccccc1
-3.9	-5.2%	7.5%	-0.3%	CCN(CC)S(=O)(=O)c1cccc(-c2nnc(SCC(=O)NCCC3=CCCCC3)n2N)c1
·	-5.7%	5.9%	-0.1%	CCOc1ccc2nc(SCC(=O)NC3CCCCC3)[nH]c2c1
-3.8	2.6%	-0.7%	2.1%	CCOC(=O)CSc1nnc(C)c(=O)[nH]1
·	-0.3%	·	0.4%	CC(Sc1nccn1C)C(=O)c1c(N)n(C)c(=O)n(C)c1=O (stereo not given)
·	3.4%	-47.7%	0.8%	CCN(CCn1cccn1)C(=O)c1cc(COc2ccccc2SC)on1
·	-16.4%	·	-2.1%	COC(=O)[C@H](CC(C)C)N(Cc1ccccc1)S(=O)(=O)N(Cc1ccc(OC)cc1)[C@@H](CC(C)C)C(=O)OC
-8.0	1.6%	0.2%	-3.2%	O=C(COC(=O)CNC(=O)c1cccc([N+](=O)[O-])c1)Nc1cccc(S(=O)(=O)N2CCCC2)c1
·	6.2%	·	-0.2%	OC1CCCC1
·	-8.5%	·	-1.0%	COc1ccccc1C=NN=Cc1ccccc1OC
-1.9	-12.3%	-54.9%	-4.3%	O=C(CN1C(=O)COc2ccccc21)Nc1ccc(F)cc1
5.2	17.2%	-19.0%	-5.0%	COC(=O)c1cccc(NC(=O)/C=C/c2cccc([N+](=O)[O-])c2)c1
3.2	28.8%	-7.4%	-3.0%	CC1CCCC(C)N1C(=O)CSc1nc2ccccc2c(=O)[nH]1 (stereo not given)
-1.1	-11.6%	20.4%	-0.1%	COc1ccc(CCNc2nc(-c3sc(C)nc3C)cs2)cc1OC
-11.8	-0.2%	-1.8%	-1.1%	Cc1cc(NC(=O)c2ccc(Cl)cc2)n(CCOC(=O)c2ccc(Cl)cc2)n1
·	-28.1%	·	-0.3%	CC1CCCCC1NC(=O)CN1c2cccc3cccc(c23)S1(=O)=O (stereo not given)
-13.4	0.9%	2.5%	-3.6%	CCOC(=O)c1cc(-c2ccc(OC)cc2)nc2c1c(C)nn2CCC(N)=S
·	-3.3%	·	0.5%	COc1ccc(OCC(=O)OCC(=O)NC2CC2)cc1
·	-6.7%	-1.3%	1.1%	O=C(CCN1C(=O)/C(=C/c2ccccc2Cl)SC1=S)N1CCCC1
9.5	7.9%	-1.3%	-3.4%	Cc1ccc(NC(=O)c2ccc(S(=O)(=O)N3CCCCC3)cc2)cc1
-3.0	9.3%	1.2%	1.2%	Cc1ccc(C(=O)OCC(=O)N2CCC(Cc3ccccc3)CC2)cc1N
·	11.4%	·	?	COC(=O)[C@]1(C)N[C@H](CN(C)C(=O)c2ccc(F)cc2)[C@@H]2C(=O)N(Cc3ccccc3)C(=O)[C@@H]21

More results:
GLA inh pH 4.5	Rango release inh	miR-21 FLuc	Rango-impB inh	mol
·	-0.7%	3.7%	-2.6%	COc1ccc(OCC(=O)Nc2ccc3c(c2)nc(CCn2ccccc2=O)n3C)cc1
·	1.1%	-0.7%	2.9%	CCc1nnc(NC(=O)CSCc2cc(=O)n3nc(C)sc3n2)s1
1.5&-2.7&1.5&5.5&-2.9	?	·	-3.3%	CC(C)NC[C@H](O)c1ccc(O)c(O)c1
-9.6	15.7%	-0.1%	-1.5%	Cc1ccccc1OCC(=O)N/N=C/c1cn(Cc2ccccc2)c2ccccc12
·	0.4%	·	-0.2%	CCSc1nc(COC(=O)NC)c(COC(=O)NC)n1C
5.7	-4.0%	-6.4%	-3.7%	O=C(CCCCCNC(=O)c1ccccc1Cl)N/N=C/c1ccco1
·	2.4%	-2.3%	3.0%	COc1ccc(NC(=O)c2ccccc2NC(=O)c2ccccc2)cc1
-14.8	11.8%	-9.2%	-0.2%	CCOc1ccccc1-n1c(=O)c2ccccc2c2ccccc2c1=O
1.2	26.9%	-3.3%	7.8%	CC(C)NC(=S)NCc1cccs1
0.6	·	-4.6%	·	Cc1ccc(-c2nc3ccccc3n3c(C)nnc23)cc1
·	?	-6.5%	-1.6%	CCOC(=O)C1=C(COC(=O)c2ccc(Br)o2)NC(=O)NC1C (stereo not given)
·	9.7%	-1.9%&-1.6%	0.2%	CCCNC(=O)CN1C(=O)COc2ccc(S(=O)(=O)N3CCCCCC3)cc21
·	-11.6%	0.0%	-2.0%	COC(=O)c1c(NC(C)=O)sc(C(=O)N2CCOCC2)c1C
7.6	-17.6%	16.5%	?	COCCn1c(=NC(=O)c2cc(-c3cccs3)nc3ccccc23)sc2cc(S(N)(=O)=O)ccc21
2.8	-5.4%	0.1%	2.8%	COc1cc(C=O)c(Cl)cc1OCC(N)=O
-3.8	-4.7%	0.6%	-6.8%	CCOc1ccc(N2C(=O)Nc3ccccc3C2(O)C(=O)NCc2ccc(F)cc2)cc1 (stereo not given)
·	4.1%	·	1.0%	COc1ccc(CCNC(=O)COC(=O)/C=C/c2ccc3c(c2)OCO3)cc1
-3.3	-14.8%	-3.6%	3.1%	CC1CN(S(=O)(=O)c2ccc(C(=O)Nc3ccc(S(=O)(=O)Nc4ncccn4)cc3)cc2)CC(C)O1 (stereo not given)
·	7.7%	0.2%	0.9%	Cc1ccc(NS(=O)(=O)c2c(C)[nH]c(C)c2C(=O)N2CCCCC2)cc1C
-13.7	-3.5%	-1.6%	-0.4%	CC(=O)c1cc2c(cc1NC(=O)c1c(-c3ccccc3)noc1C)OCO2
-5.3	22.7%	-1.2%	-2.6%	O=C1c2ccccc2C(=O)N1Cc1ccco1
5.5	16.5%	-4.8%	1.0%	O=Cc1cccn1Cc1ccccc1[N+](=O)[O-]
-2.1	6.0%	23.6%	-2.2%	CCCCNS(=O)(=O)c1ccc2nc(SCC(=O)Nc3ccccc3)[nH]c2c1
-4.7	-2.0%	-3.5%	1.8%	CS(=O)(=O)N(CC(=O)N1CCCCC1)c1cccc(F)c1
2.6	7.0%	-6.2%	0.2%	CCOC(=O)[C@H]1NN=C(C(=O)OC)[C@@H]1c1ccccc1

Next structures.
GLA inh pH 4.5	Rango release inh	miR-21 FLuc	Rango-impB inh	mol
2.8	1.0%	-23.3%	-5.9%	CCOC(=O)c1ccc(N2C(=O)C(C)=C(C)C2=O)cc1
6.8	-8.0%	-0.1%	-5.9%	CCC1SC(CC)C(=O)N(CC(=O)NCc2ccc(F)cc2)C1=O (stereo not given)
-0.4	-14.5%	-4.6%	-1.4%	CSCCC(NS(=O)(=O)c1ccc(Cl)c(Cl)c1)C(=O)O (stereo not given)
-4.9	-6.8%	-0.4%	1.1%	Cc1cc(C)n2nc(S(=O)(=O)Nc3c(Cl)cccc3Cl)nc2n1
6.7	0.5%	-1.5%	0.2%	O=C(Nc1ccccc1)Nc1ccccc1C(=O)NCCCN1CCOCC1
·	2.1%	·	-3.3%	CC(CNC1CCCCC1)OC(=O)c1ccc([N+](=O)[O-])cc1 (stereo not given)
6.0	3.1%	-4.7%	-0.7%	CC(C)N(Cc1ccccc1)C(=O)c1cnc2n(c1=O)CCS2
·	37.0%	-6.3%	-0.2%	CC(=O)C(C)Sc1nnc(-c2ccccc2F)n1C1CC1 (stereo not given)

A second format for some results above:
SMILES: O=C(Nc1ccccc1)Nc1ccccc1C(=O)NCCCN1CCOCC1
  GLA inh pH 4.5: 6.7	Rango release inh: 0.5%	miR-21 FLuc: -1.5%	Rango-impB inh: 0.2%

SMILES: CC(C)N(Cc1ccccc1)C(=O)c1cnc2n(c1=O)CCS2
  GLA inh pH 4.5: 6.0	Rango release inh: 3.1%	miR-21 FLuc: -4.7%	Rango-impB inh: -0.7%

Full records from above.
Listed for CC(CNC1CCCCC1)OC(=O)c1ccc([N+](=O)[O-])cc1 (stereo not given) = GLA inh pH 4.5 = ·; Rango release inh = 2.1%; miR-21 FLuc = ·; Rango-impB inh = -3.3%
Listed for CC(C)N(Cc1ccccc1)C(=O)c1cnc2n(c1=O)CCS2 = GLA inh pH 4.5 = 6.0; Rango release inh = 3.1%; miR-21 FLuc = -4.7%; Rango-impB inh = -0.7%
Listed for O=C(Nc1ccccc1)Nc1ccccc1C(=O)NCCCN1CCOCC1 = GLA inh pH 4.5 = 6.7; Rango release inh = 0.5%; miR-21 FLuc = -1.5%; Rango-impB inh = 0.2%

From PubChem BioAssay
